Source: PubChem (National Center for Advancing Translational Sciences (NCATS))
PINK1 modulator – A Quantitative High throughput Screen to Identify Chemical Modulators of PINK1 Expression | PINK1 immunofluorescence, high-content cytometry, 24 h | Potency, µM (titrated, usually from 76.6 µM), without a hit: at the highest dose activation (PINK1 increase), actives largely listed as activators | hit rate 0.2% among 410,000; active = well fitted activation curve with a large enough effect; inconclusive = small, poorly fitted or top-dose-only effect; inactive = flat fitted curve, though single readings scatter; cell line not stated here;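 also: % of control where 0% means no effect; nearly all actives have a fitted effect of over 65% in size; a mitochondrial uncoupler was the plate control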
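Stable cell line, 250 cells/well, 12 h attachment; compounds pinned at 5 concentrations, 24 h; CCCP control. Fixed with nuclear dye, primary antibodies 12 h at 10 degrees C, secondary plus cell stain; laser-scanning cytometer read.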
ClpP mod – qHTS Assay for Activators of ClpP | Potency, µM (titrated, usually from 57.5 µM), without a hit: top-dose activity change, negative = active | ATP-dependent Clp protease proteolytic subunit (Bacillus subtilis (strain 168)), P80244 | AID 651965, 2013 | hit rate 1.9% among 340,000 | purified B. subtilis ClpP, FRET peptide cleavage, 20 min; active = well fitted falling curve with a large enough effect; inconclusive = small, poorly fitted or top-dose-only effect; inactive = no such curve, though single readings can be large or run the other way; also: the source files actives as falling curves though it sought activators and does not explain the sign; nearly all actives have a fitted effect of over 65% in size; many hits overshoot -100%
Target sequence (P80244 whole entry, looked up): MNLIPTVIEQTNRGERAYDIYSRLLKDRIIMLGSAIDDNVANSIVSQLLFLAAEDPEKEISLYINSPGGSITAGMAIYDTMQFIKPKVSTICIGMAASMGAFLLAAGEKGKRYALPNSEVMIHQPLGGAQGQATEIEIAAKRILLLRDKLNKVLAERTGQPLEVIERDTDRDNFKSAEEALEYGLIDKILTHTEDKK
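Purified B. subtilis ClpP, 10 microg/mL final in Tris/HCl pH8 with KCl, BSA, glycerol and Tween-20, cleaved an Abz/nitrotyrosine-quenched decapeptide. Fluorescence (ex 320, em 430) was read at 0 and 20 min at room temperature. Delta was normalized to 5.8 microM ADEP and DMSO/no-enzyme controls.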
* = called active by the depositor; ? = inconclusive. Potency is read from the fitted curve at half-maximal effect. An excerpt; the hit share may differ from the screen's.

Start of the data: the first 2 compounds, ahead of the listing:
The line under a structure holds: PINK1 modulator	ClpP mod
- Cc1ccc(OCc2ccc(-c3nc(C#N)c(N4CCN(c5cccc(Cl)c5)CC4)o3)o2)cc1
  0.4%	10%
- Cc1ccc(Nc2ncc(C(=O)N3CCN(c4cccc(Cl)c4)CC3)c3ccccc23)cc1Cl
  1.7%	4.1%

The list itself (from the top)
The line under a structure holds: PINK1 modulator	ClpP mod
- Cc1ccc(OCc2ccc(-c3nc(C#N)c(N4CCN(c5cccc(Cl)c5)CC4)o3)o2)cc1
  0.4%	10%
- Cc1ccc(Nc2ncc(C(=O)N3CCN(c4cccc(Cl)c4)CC3)c3ccccc23)cc1Cl
  1.7%	4.1%
- CCc1ccc(NC(=O)CC2C(=O)N(c3cccc(C)c3)C(=O)N2Cc2cccc(OC)c2)cc1 (stereo not given)
  1.8%	-1.9%
- CCOc1ccc(CCNC(=O)CSc2nnnn2-c2ccccc2)cc1OCC
  0.5%	-3.7%
- CCOC(=O)c1c(NC(=O)c2ccc(F)cc2)sc2c1CCC(CC)C2 (stereo not given)
  2.0%	-11%
- COc1ccc(-c2cn3c(n2)sc2cc(C(=O)Nc4ccc(C)c(Cl)c4)ccc23)cc1
  1.4%	-15%
- COc1cccc(OC)c1C(=O)Nc1ccc(-c2nc3ncccc3o2)cc1
  8.7%	28µM*
- COc1ccc(C(=O)Nc2ccc3oc(-c4cc(Cl)ccc4Cl)nc3c2)cc1Br
  1.0%	?
- Cc1cccc(C(=O)Nc2c(C(=O)NCc3ccc(Cl)cc3)sc3nc(C)cc(C)c23)c1
  19%	-4.6%
- CCc1ccc2oc(C(=O)Nc3ccccc3OC)cc(=O)c2c1
  2.0%	-0.4%
- CCc1ccc(NC(=O)c2nc(SCc3ccccc3F)ncc2Cl)cc1
  -0.1%	4.3%
- Cc1ccc(Cl)cc1NC(=O)CSC1=Nc2ccccc2C2=NC(Cc3ccccc3)C(=O)N12 (stereo not given)
  2.9%	4.1%
- CCOC(=O)C1=C(CN2CCN(c3ccccc3)CC2)NC(=O)NC1c1ccc(C)cc1 (stereo not given)
  2.2%	-4.3%
- CCCCn1c(C(C)NC(=O)c2ccccc2)nc2ccccc21 (stereo not given)
  -0.7%	-1.8%
- COc1cc2c(=O)c(S(=O)(=O)c3ccc(F)cc3)cn(Cc3ccc(Cl)cc3)c2cc1OC
  -0.4%	-11%
- CC(C)Oc1ccc(CNC(=O)c2ccc3c(c2)nc2n3CCOC2)cc1
  2.5%	-1.1%
- CC(=O)N1CCCc2cc(S(=O)(=O)N3CCC(C(=O)N(Cc4ccccc4)C(C)C)CC3)ccc21
  -1.4%	-5.8%
- O=C(Nc1cccc(Cl)c1Cl)c1cc(S(=O)(=O)N2CCC3(CC2)OCCO3)ccc1F
  -1.4%	-12%
- Cc1ccn2c(=O)c(C(=O)NC(C)c3ccccc3)c(O)nc2c1 (stereo not given)
  1.2%	4.0%
- CC(=O)c1cccc(NC(=O)c2ccc3c(c2)c(C)c(C)n3Cc2ccc(Cl)cc2)c1
  -1.3%	-4.6%
- CCOC(=O)N1CCN(C(=O)C[C@@H]2C[C@@]3(C(=O)OCC)CCCC=C3N(Cc3ccc(Cl)cc3Cl)C2=O)CC1
  0.5%	1.6%
- Cc1ccc(Cn2c(CCCNC(=O)c3ccco3)nc3ccccc32)cc1
  0.3%	-3.7%
- CSc1nc(Nc2ccc(C)cc2C)cc(-c2ccccc2)n1
  1.7%	?
- NS(=O)(=O)c1ccc(NC(=O)COc2ccc(S(=O)(=O)NC3CCCCC3)cc2)cc1
  0.4%	2.3%
- Cc1ccsc1CN(Cc1ccco1)C(=O)c1ccc(Cl)cc1
  1.7%	1.1%
- Cc1ccc2oc3c(c(=O)c2c1)C(c1cccc(O)c1)N(Cc1ccccc1Cl)C3=O (stereo not given)
  -0.6%	-4.9%
- O=C1C(=O)C(c2cc(O)c(O)c(O)c2)Oc2cc(O)cc(O)c21 (stereo not given)
  -0.2%	-1.2%
- CCN1CCN(C(c2ccccc2)c2c(O)cc(C)n(CCOC)c2=O)CC1 (stereo not given)
  0.5%	2.0%
- COc1ccccc1NC(=O)CSc1nc2nccnc2c(=O)n1CCc1c[nH]c2ccccc12
  1.0%	-1.0%
- CC(C)(C)c1ccccc1NC(=O)CSc1nc(-c2cccs2)cc(C(F)(F)F)n1
  13%	?

3 entries out of the list, ordered by length of the SMILES, smallest number first.
The line under a structure holds: PINK1 modulator	ClpP mod
- CSc1nc(Nc2ccc(C)cc2C)cc(-c2ccccc2)n1
  1.7%	?
- CC(C)Oc1ccc(CNC(=O)c2ccc3c(c2)nc2n3CCOC2)cc1
  2.5%	-1.1%
- O=C(Nc1cccc(Cl)c1Cl)c1cc(S(=O)(=O)N2CCC3(CC2)OCCO3)ccc1F
  -1.4%	-12%

Following part
The line under a structure holds: PINK1 modulator	ClpP mod
- CCc1ccc2occ(CC(=O)NCc3ccccc3)c2c1
  6.8%	0.4%
- O=C(Nc1ccccc1C(=O)O)c1cccc(S(=O)(=O)N2CCCC2)c1
  0.1%	0.2%
- CCOc1ccc(NC(=O)CN2CCN(CC(=O)Nc3ccc(F)cc3F)CC2)cc1
  1.0%	-3.1%
- Cc1ccc(C)c(CN2C(=O)c3ccccc3S(=O)(=O)c3ccc(C(=O)N4CCCCC4)cc32)c1
  -0.4%	0.8%
- Cn1c(=O)cc(OCC(=O)N2CCN(c3ccc(F)cc3)CC2)c2ccccc21
  0.7%	-5.2%
- Cc1cc(C)n(-c2nc3cc(Cl)ccc3nc2N2CCN(c3cccc(C)c3C)CC2)n1
  1.9%	-2.5%
- COc1ccc(/C=C\c2onc(C)c2S(=O)(=O)N2CCC(C(=O)Nc3ccc(F)cc3F)CC2)cc1
  3.1%	?
- CC(C)n1nnnc1C1c2ccccc2C(=O)N1CCc1c[nH]c2ccccc12 (stereo not given)
  0.3%	-1.3%
- COc1cccc(-n2c(-c3ccc(C)cc3)cc3c2CC(C)(C)CC3=O)c1
  1.1%	?
- O=C(COc1ccccc1)Nc1ccc2nc(SCC(=O)N3CCc4ccccc43)sc2c1
  -1.4%	-3.3%
- COc1ccc(N2CCN(C(CNS(=O)(=O)c3ccc(OC)c(C)c3)c3ccco3)CC2)cc1 (stereo not given)
  -0.3%	-9.2%
- COc1ccc(N(Cc2nnc3n2CCCCC3)C(=O)Nc2ccc(Cl)cc2)cc1Cl
  -3.5%	0.6%
- Cc1ccc(CN2CCCn3nc(C(=O)NCCC(C)C)cc3C2=O)cc1
  1.7%	-2.7%
- Cc1c(-c2nc(-c3ccc4c(c3)OCO4)no2)nnn1-c1ccc(Br)cc1F
  -0.2%	-7.4%
- CN(c1ncnc2c1c(-c1ccccc1)cn2-c1ccc(F)cc1)C1CCCCC1
  0.0%	28µM*
- Cc1ccc(CN(C(=O)c2ccc(OCC(C)C)cc2)c2ccccn2)o1
  -1.5%	1.3%
- Cc1nn(CC(=O)N2CCC(C)CC2)c(=O)c2cc3occc3n12
  0.8%	-3.9%
- O=C(NC1CCCCC1)c1cc(Nc2ccccc2)nc2ccccc12
  7.2%	57%
- COc1ccc(NC(=O)CSc2nc3ccccc3n2CC(=O)NCc2ccc(F)cc2)cc1
  2.0%	0.1%
- COc1ccc(-c2nc3scc(CCNS(=O)(=O)c4ccc(F)c(C(F)(F)F)c4)n3n2)cc1OC
  3.5%	-2.9%
- CCOc1ccc(CNC(=O)Cn2c(=O)c3cccn3c3ccc(F)cc32)cc1
  1.0%	-42%
- CCOC(=O)c1c(NC(=O)c2cc3nc(-c4ccc(OC)cc4)cc(C(F)(F)F)n3n2)sc2c1CCC(C)C2 (stereo not given)
  1.0%	32µM*
- Cc1ccccc1CSc1nc2ccsc2c(=O)n1CCC(C)C
  0.1%	-2.2%
- CCCN1C(=O)C2(c3ccccc31)c1c(oc3ccc(F)cc3c1=O)C(=O)N2CCCOC(C)C (stereo not given)
  0.6%	-2.4%
- COc1ccc(C)cc1NC(=O)c1cc(S(=O)(=O)N2CCN(c3cccc(C)c3C)CC2)ccc1F
  1.3%	0.8%
- CCC(=O)N1CCc2cc(Br)cc(S(=O)(=O)CCC(=O)N3CCN(c4cc(C)ccc4C)CC3)c21
  -0.7%	-0.4%
- Cc1ccc(NC(=O)CSCn2nnc3c(=O)[nH]c(Cc4ccc(F)cc4)nc32)c(C)c1
  -0.9%	-2.3%
- CCOC(=O)c1sc2ncn(CC(=O)Nc3ccc(C)cc3Br)c(=O)c2c1C
  0.3%	0.3%
- Cc1ccccc1OCc1ccc(-c2nc(C#N)c(N3CCN(c4ccccc4)CC3)o2)o1
  1.6%	4.3%
- O=C(CN1C(=O)COc2ccc(S(=O)(=O)N3CCCCCC3)cc21)Nc1cccc(Cl)c1
  0.3%	-5.1%
- CCOC(=O)c1c(C)oc2nc(C)nc(NCCCN3CCN(c4cccc(C)c4)C(C)C3)c12 (stereo not given)
  -0.1%	0.1%
- COc1cccc(-n2c(=O)c3cc(OC)c(OC)cc3n(CC(=O)Nc3ccc(F)cc3)c2=O)c1
  3.7%	-14%
- COC(=O)[C@]12CCCCC=C1N(CCC1=CCCCC1)C(=O)[C@H](CC(=O)N1CCC(c3ccccc3)CC1)C2
  7.9%	1.8%
- CN(Cc1ccccc1)C(=O)c1cc2c(=O)n(C)c3ccccc3c2s1
  -0.3%	-25%
- CCn1cc2nc(SCC(=O)Nc3ccc(C)cc3)n(Cc3ccc(C)cc3)c(=O)c2n1
  1.2%	-7.0%
- Cc1ccc(C)c(NC(=O)CSc2cn(CC(=O)N3CCCCC3)c3ccccc23)c1
  0.5%	-2.3%
- CCCCCCN1CCN(C2CN(Cc3cn(Cc4ccc(C)cc4)nn3)S(=O)(=O)C2)CC1 (stereo not given)
  -0.2%	1.7%
- CCOc1ccc(-c2nnc(SCC(=O)c3ccc(F)cc3)n2-c2ccccc2)cc1
  -0.5%	-0.5%
- O=C(c1ccccc1Br)N(Cc1ccco1)C1CCS(=O)(=O)C1 (stereo not given)
  1.1%	-1.9%
- CCOC(=O)c1ccc(NC(=O)CCn2cnnn2)cc1
  -0.5%	1.5%
- Cn1nnnc1SCCCNCc1ccccc1OCc1ccccc1F
  0.3%	-1.5%
- COc1ccccc1NC(=O)C(=O)c1cc(C)n(-c2ccccc2F)c1C
  0.0%	-0.2%
- Cc1ccc(C(=O)c2cn(Cc3ccccc3F)c3cc4c(cc3c2=O)OCO4)cc1
  -0.1%	-0.3%
- Cc1sc(-n2cccc2)c(C(C)NC(=O)Nc2cccc(C(F)(F)F)c2)c1C (stereo not given)
  ?	-3.3%
- COc1ccc(-c2nc(CSCC(=O)NCCc3ccc(OC)c(OC)c3)c(C)o2)cc1
  -0.2%	-26%
- Cc1csc2nc(COc3ccc(NC(=O)COc4ccccc4)cc3)cc(=O)n12
  2.7%	34%
- N#Cc1nc(COc2ccc(-c3ccccc3)cc2)oc1N1CCC(C(N)=O)CC1
  -0.2%	-2.6%
- OC(c1ccccc1)(c1ccccc1)C1CCN(CCCOc2ccc3c(c2)CCCC3)CC1
  -0.4%	-2.9%
- CCOC(=O)c1ccc(NC(=O)CN2C(=O)c3cccnc3Oc3ccc(Cl)cc32)cc1
  0.1%	?
- O=C(Nc1c(-c2ccc(F)cc2)nc2ccccn12)c1ccccc1F
  1.5%	-0.1%
- CCn1cc(C(=O)NCCOC)c(=O)c2cc(S(=O)(=O)N3CCOCC3)ccc21
  1.2%	-1.3%
- Cc1cc(C)cc(NC(=O)CSc2cc(C)[nH]c(=O)n2)c1
  0.5%	-0.6%
- CCOC(=O)c1cnc2c(ccc3ccccc32)c1Nc1ccc(C(C)=O)cc1
  3.6%	-3.6%
- COc1cc2c(cc1OC)C(c1ccc(Cl)cc1)N(c1cccc(C#N)c1)C(=O)C2 (stereo not given)
  2.0%	-2.1%
- Cc1ccc(CNC(=O)C2CCN(S(=O)(=O)c3c(C)noc3/C=C/c3c(C)cc(C)cc3C)CC2)cc1
  -0.3%	-9.5%
- Cc1cccc(NC(=O)c2sc3cccc(Cl)c3c2Cl)c1
  2.1%	-15%
- COc1ccccc1NC(=O)C1=C(C)Nc2nc(SCc3ccccc3F)nn2C1c1ccncc1 (stereo not given)
  0.5%	-0.8%
- COCCCNC(=O)c1ccc(Cn2c(=O)c3ccccc3n(CC(=O)Nc3c(C)cccc3C)c2=O)cc1
  3.9%	-2.7%
- CCOCCCNC(=O)c1[nH]c2cc(C)ccc2c1Sc1ccc(Cl)cc1
  4.0%	-3.9%
- CCOc1ccc(C(=O)c2cn(Cc3ccccc3)c3c(F)cc(F)cc3c2=O)cc1
  -0.8%	-6.2%

Following part.
The line under a structure holds: PINK1 modulator	ClpP mod
- OCCNc1nc(-c2cccs2)nc2ccccc12
  0.8%	-19%
- COc1cccc(C(=O)Nc2nc3ccc(S(=O)(=O)N4CCCC4)cc3s2)c1
  5.0%	-23%
- CCOc1ccc(NC(=O)CCn2cnc3onc(-c4ccc(F)cc4)c3c2=O)cc1
  4.2%	-0.1%
- CCOC(=O)c1c(C)n(-c2ccccc2)c2ccc(OC(=O)c3ccccc3NC(=O)C(C)C)cc12
  0.5%	-11%
- COc1ccc(CCNC(=O)Cc2c(C)c3cc4c(C)coc4cc3oc2=O)cc1OC
  2.3%	-5.7%
